Source: PubChem
CSC inhib: cancer stem cell viability inhibitors, primary screen, luminescence; 300,000 tested, 1.1% active; cancer stem cell-like cells viability; AID 2717, 2010; inhibition, % at 7.5 µM;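 active means mean at 75% or more and at least half the replicates too; inconclusive means mean and replicates disagree; tested in HMLE shEcad cells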;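 further: 0% = median of negative and 100% = median of positive control wells; the first replicate is given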
MT1-MMP act inh: blockers of MT1-MMP proenzyme processing, primary screen, HT1080 RFP-PRO-GFP cells, GFP/RFP fluorescence. GFP/RFP ratio fluorescence, overnight; percent of plate control window, DMSO zero. GFP/RFP ratio change, % at 20 µM. 360,000 tested, 0.061% active;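 active means GFP/RFP ratio change of at least 30% with cell ATP level not reduced by more than half and red fluorescence within 50% of control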; further: strong numbers were not always called active
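Assay system: HT1080 RFP-PRO-GFP cells. Benchmarks: DMSO vehicle wells and RFP-L50D-GFP reporter cell wells. Times: overnight cell settling, then overnight compound exposure, 37 °C, 5% CO2. Compound: 20 µM single dose, 1% DMSO. Read-out basis: GFP/RFP fluorescence ratio.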
Rce1 inhib: yeast Rce1p protease inhibitors, primary screen, biochemical, fluorescence, cell-free homogeneous; CAAX prenyl protease 2 (Saccharomyces cerevisiae (strain ATCC 204508 / S288c)), Q03530; yeast membranes, quenched prenylated peptide cleavage fluorescence; calls only; 290,000 tested, 0.27% active;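 active means fall in fluorescence gain of 50% or more versus controls, with final raw signal at or below 3038400; inconclusive means same 50% fall but final raw signal above 3038400; inactive means fall in fluorescence gain under 50%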;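 further: plate controls were neutral control wells for no effect and wells lacking membranes for full effect; tested at 10 µM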
Env fusion inh: inhibitors of HIV-1 Env-driven cell-cell fusion, primary screen, HeLa-JRFL effector, CEM21 target cells, luciferase | inhibition, % at 12.3 µM | 360,000 tested, 1.1% active;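 active means mean replicate inhibition score of at least 50 and every replicate individually at or above 50; inconclusive means only one of the two criteria met; inactive means mean below 50 and not all replicates reaching 50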;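 further: 0% = plate neutral controls and 100% = maraviroc near 300 nM; one replicate is shown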
UUG fidelity: modulators of yeast start codon fidelity, primary screen, whole organism, S. cerevisiae, single point, plate reader; S. cerevisiae UUG-firefly luciferase reporter, luminescence/redox ratio; activity score, % at 18.7 µM; 350,000 tested, 0.13% active; AID 602363, 2012;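 active means replicate mean at a twofold rise or more, about +100% in these data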;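 further: firefly luciferase made from a UUG start codon reports start codon fidelity; reporter light over untreated wells divided by growth signal over untreated wells; some hits fall short of that in this replicate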
eIF4H inh: human eIF4H binding inhibitors, primary screen, translation initiation inhibitor project, biochemical, uHTS, fluorescence polarization. Eukaryotic translation initiation factor 4H (Homo sapiens), Q15056. eIF4H fluorescence polarization binding assay. inhibition, % at 35 µM. 290,000 tested, 0.94% active. AID 2012, 2009;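 active means 50% or more with normal probe brightness, or confirmed in later tests; inconclusive means above 50% with abnormal brightness, or retests that disagree; inactive means below 50% or failed in later tests; about a fifth of its hits are not listed in these tables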;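 further: calls also rest on retests at 20 µM and on dose response follow-up; 0% = protein and probe with vehicle and 100% = probe without protein; strong numbers were not always called active; many hits fall short of the cut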
PABP FP inh: PABP poly(A) RNA binding inhibitors, primary screen, biochemical, fluorescence polarization, uHTS. Polyadenylate-binding protein 1 (Homo sapiens), P11940. inhibition, % at 35 µM. 290,000 tested, 1% active;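 active means 50% or more with normal probe brightness, or confirmed in later tests; inconclusive means above 50% with abnormal brightness, or retests that disagree; inactive means below 50% or failed in later tests; about a fifth of its hits are not listed in these tables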;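 further: calls also rest on retests at 20 µM and on dose response follow-up; controls were probe without protein and protein plus probe with vehicle; some compounds called inactive have numbers as strong as hits; many hits fall short of the cut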
Target sequence (P11940 whole entry, looked up): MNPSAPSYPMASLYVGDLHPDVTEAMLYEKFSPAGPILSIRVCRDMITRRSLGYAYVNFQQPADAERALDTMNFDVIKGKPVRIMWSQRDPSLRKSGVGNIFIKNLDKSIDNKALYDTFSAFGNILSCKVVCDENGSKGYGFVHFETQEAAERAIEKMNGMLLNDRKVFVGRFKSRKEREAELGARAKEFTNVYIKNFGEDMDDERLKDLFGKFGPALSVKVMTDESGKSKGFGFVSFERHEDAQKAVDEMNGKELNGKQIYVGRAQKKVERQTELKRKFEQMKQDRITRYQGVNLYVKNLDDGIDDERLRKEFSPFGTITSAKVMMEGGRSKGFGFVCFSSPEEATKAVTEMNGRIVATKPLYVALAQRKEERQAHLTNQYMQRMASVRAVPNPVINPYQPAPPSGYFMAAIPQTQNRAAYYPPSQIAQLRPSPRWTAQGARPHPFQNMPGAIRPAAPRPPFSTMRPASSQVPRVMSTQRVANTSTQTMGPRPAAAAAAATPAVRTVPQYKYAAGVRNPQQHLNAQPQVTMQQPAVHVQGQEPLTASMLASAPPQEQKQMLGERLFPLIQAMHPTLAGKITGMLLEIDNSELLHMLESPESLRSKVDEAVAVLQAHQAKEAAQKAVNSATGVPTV
eIF4H inh retest: also measured in eIF4H inh; calls as there; inhibition, %; compound at 20 µM; confirmation average;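 mean of two retest wells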
PABP FP inh retest: recorded beside PABP FP inh, whose call it bears; inhibition, %; compound at 20 µM; confirmation repeats;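 mean of two retest wells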
MT1-MMP act inh RFP: also measured in MT1-MMP act inh; calls as there; RFP signal change, %; measured here: RFP expression control read;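 0 = vehicle wells; hits needed this value within 50% of zero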
* = called active by the depositor; i = inactive; ? = inconclusive; · = not tested or not shown; + = active, no number; & = joins results of further samples. An excerpt (hit frequency here may not be typical).

SMILES	CSC inhib	MT1-MMP act inh	MT1-MMP act inh RFP	Rce1 inhib	Env fusion inh	UUG fidelity	eIF4H inh	PABP FP inh	others
COc1ccc2cc3c(N)nn(C(=O)c4ccc(F)cc4)c3nc2c1	-8	-8	3	i	63*	·	3	-10
FC(F)Oc1ccc(/C=N/c2c(-c3ccc(OC(F)F)cc3)nc3n2CCS3)cc1	8	-2	3	i	·	-27	2	8
O=C(c1cccc([N+](=O)[O-])c1)N1CC2C3C=CC(C3)C2C1 (stereo not given)	·	-3	4	i	4	-1	-7	3
COc1ccc(NC2=CC(c3cccc(OC)c3)N(c3ccc(OC)cc3)C2=O)cc1 (stereo not given)	17	-99	1	i	15	·	12	-1
Cc1nc2sccc2c(=O)n1-c1cccc(Cl)c1	-9	2	0	i	-74	-16	-1	-9
CC(C)Oc1nc(-c2ccccc2O)nc2ccccc12	2	-5	3	i	9	-19	0	1
COc1ccc(OC)c(C(=O)c2ccc([N+](=O)[O-])cc2)c1	·	-2	-2	·	17	0	·	·
COc1ccc(OC)c(N(CC(=O)Nc2ccccc2C(=O)NCc2ccco2)S(C)(=O)=O)c1	-13	6	-2	i	-9	-12	-4	1
COc1cc(/C=N/NC(=O)CC#N)cc(Br)c1O	-6	-2	2	i	-35	·	11	15
O=S(=O)(c1ccccc1)c1nc(-c2cccs2)oc1NCCCn1ccnc1	3	0	2	i	·	-13	-2	-1
CCOC(=O)c1c(NC(=O)C2CCCO2)sc(C(=O)OC(C)(C)C)c1C (stereo not given)	6	-6	1	i	·	-11	3	3
O=C1CCCC(O)=C1N=Nc1cccc(C(=O)O)c1	11	13	8	i	7	-28	87	8	eIF4H inh retest=-8;PABP FP inh retest=-2
Cc1ccc(C(=O)NCCn2ccc3ccccc32)cc1[N+](=O)[O-]	-2	2	-1	i	3	·	4	5
CCCCNS(=O)(=O)CCNCc1ccccc1OC	·	1	3	·	-8	-12	·	·
Cc1cccc(C(=O)OCc2cc(=O)oc3c(C)c(C)ccc23)c1O	1	0	-1	i	·	-24	-2	2
COc1ccc(N2CCOCC2)c(NC(=O)COc2cccc(C)c2)c1	-12	-1	0	i	5	-4	2	-16
CC1(NC(=S)Nc2ccc(NC(=S)NC3(C)CCS(=O)(=O)C3)cc2)CCS(=O)(=O)C1 (stereo not given)	-13	1	0	i	11	-26	-12	1
Cc1cc(C(=O)CSc2n[nH]c(N)n2)c(C)n1-c1cccc(F)c1	-14	-2	-4	i	·	-30	12	-7
COc1ccc(-c2ncccc2O)cc1	-11	9	3	i	·	-6	-9	1
Cc1cc(OCC(=O)N2CCC(C(=O)O)CC2)c2c(C)cc(=O)oc2c1	12	3	4	+	·	-15	-5	3
Cc1cc(C)nc(/N=C2\NC(=O)CC(C(=O)O)N2c2ccc(Cl)cc2)n1 (stereo not given)	2	-1	2	i	-4	-7	-18	-6
COc1ccccc1NC(=O)CN(c1ccccc1)S(=O)(=O)c1ccccc1	-6	·	·	i	-32	8	-5	2
Cc1ccc(S(=O)(=O)N(C)C)cc1NC(=O)C(C)OC(=O)c1cc[n+]([O-])cc1 (stereo not given)	2	-5	0	·	·	-18	·	·
COc1ccc(CC(=O)N2CCC(C)(C(=O)NS(=O)(=O)C3CC3)C2)cc1OC (stereo not given)	·	1	1	·	-30	-10	·	·
Fc1ccc(-c2cnc[nH]2)cc1	34	-4	-3	i	·	-4	-1	6

Arranged by count of non-hydrogen atoms (ascending): some entries from above
SMILES	CSC inhib	MT1-MMP act inh	MT1-MMP act inh RFP	Rce1 inhib	Env fusion inh	UUG fidelity	eIF4H inh	PABP FP inh	others
COc1cc(/C=N/NC(=O)CC#N)cc(Br)c1O	-6	-2	2	i	-35	·	11	15
Cc1cccc(C(=O)OCc2cc(=O)oc3c(C)c(C)ccc23)c1O	1	0	-1	i	·	-24	-2	2
Cc1cc(OCC(=O)N2CCC(C(=O)O)CC2)c2c(C)cc(=O)oc2c1	12	3	4	+	·	-15	-5	3

Next part.
SMILES	CSC inhib	MT1-MMP act inh	MT1-MMP act inh RFP	Rce1 inhib	Env fusion inh	UUG fidelity	eIF4H inh	PABP FP inh	others
COc1ccc(CCNc2c([N+](=O)[O-])c(=O)oc3ccccc23)cc1OC	-14	2	0	i	1	-12	-10	-7
CCOc1ccc(S(=O)(=O)NCCC(=O)NCC(c2ccco2)N2CCCCC2)cc1 (stereo not given)	-8	2	3	·	·	-11	·	·
O=C(NCc1ccncc1)C(=O)NCc1ccncc1	-3	-4	2	i	26	-16	-2	-4
COc1ccc(CNS(=O)(=O)NCc2ccc(C)cc2)cc1OC	7	3	-2	i	21	0	24	73	eIF4H inh retest=-2;PABP FP inh retest=6
Cc1cc(OCCCCNC(C)C)cc(C(C)C)c1	26	-1	6	i	8	229*	13	6
Cc1ccccc1NC(=O)c1ccc(CN2CCc3ccccc3C2)cc1	21	-3	-16	i	·	-7	2	-10
CC(=O)NC(c1ccc2ccccc2c1)c1ccc2cccnc2c1O (stereo not given)	102*	14	-3	i	-15	-34	0	5
COC(=O)/C(C#N)=C\c1c(OC)[nH]c2ccccc12	5	4	-6	i	-3	-28	-10	3
COc1ccc(C2Nc3ccccc3C(=O)N2c2ccc(C)cc2)cc1COc1ccccn1 (stereo not given)	-1	4	8	i	·	·	-5	-7
O=C(CN1C(=O)NC2(CCCC2)C1=O)OCCOc1cccc(Cl)c1	1	3	3	i	-3	3	·	·
CC1=C(C(=O)Nc2ccccc2C(=O)N2CCC(C)CC2)SCCO1	-23	-4	-2	i	9	-33	-6	0
O=C(Cn1c(NCCO)nc2ccccc21)NCC(F)(F)F	-2	4	4	i	-4	-31	-7	-8
CC(NO)/C(=N\O)c1cccs1 (stereo not given)	-23	-2	1	i	·	-1	6	1
O=C(Cc1cnn(-c2ccccc2)c1)c1ccc(O)c(O)c1O	·	12	-2	i	-90	-24	86*	54*
CCCCNC(=O)C(c1ccc(OCC(=O)OC)c(C(=O)OC)c1)N(CCOC)C(=O)CCCCCN1C(=O)NC(c2ccc(-c3ccccc3)cc2)C(C(=O)OCc2ccccc2)=C1C (stereo not given)	125*	·	·	i	-27	·	-11	-7
COC(=O)/C=c1/sc2n(c1=O)CCN=2	-21	-1	2	i	·	2	-9	10
O=C(O)c1cc(C(=O)O)cc(N2C(=O)CSC2=S)c1	-7	9	11	i	4	0	·	·
C[C@H](CO)N1C[C@H](C)[C@H](CN(C)C(=O)Nc2ccc(-c3cccs3)cc2)OCc2cnnn2CCCC1=O	·	4	0	·	28	-25&-2	·	·
N=C1c2ccccc2CN1NC(=O)COc1ccc(Cl)cc1	-9	1	4	i	25	·	-1	6
CC(C)[C@H]1C(=O)Nc2ccccc2N1C(=O)N[C@@H](Cc1ccccc1)C(=O)N[C@@H](C(=O)O)c1ccccc1	-15	7	4	i	·	-16	0	-10
CC(C)N(C)CCOC(=O)C1COc2ccccc2O1 (stereo not given)	-3	2	7	i	0	·	-6	2
O=C(c1cccc(-n2cccc2)c1)N1CCN(S(=O)(=O)c2ccccc2)CC1	14	0	2	i	-23	·	·	·
CC(O)(CS(=O)(=O)Cc1ccccc1)c1ccccc1 (stereo not given)	-7	3	3	i	0	-18	-5	2
CC(C(=O)Nc1ccc(O)c(C(=O)O)c1)N1C(=O)/C(=C/c2cccs2)SC1=S (stereo not given)	-18	15	10	i	12	5	-4	14
O=c1cc(O)nc(SCc2ccccc2)n1-c1ccc(Cl)cc1	-5	0	-5	i	8	-3	17	-5

(more compounds)
SMILES	CSC inhib	MT1-MMP act inh	MT1-MMP act inh RFP	Rce1 inhib	Env fusion inh	UUG fidelity	eIF4H inh	PABP FP inh	others
CC(C)c1cccc(-c2csc(C(O)c3ccccc3)n2)c1 (stereo not given)	·	-5	-12	·	-6	1	·	·
COc1cccc(NC(=O)c2cc3ccccc3o/c2=N\O)c1	31	4	-3	i	-125	-78	17	2
O=C(Nc1ccc(Cl)c(S(=O)(=O)N2CCOCC2)c1)c1cccs1	-10	5	-4	·	-1	-14	·	·
Cc1ccc(CNC(=O)c2ccc(NC(=O)C3=CSCCO3)cc2)cc1	-8	2	-1	i	-7	-5	22	11
Cc1ccc(S(=O)(=O)/N=C2\C=C(NS(=O)(=O)c3ccc(C)cc3)C(=O)c3ccccc32)cc1	·	23	2	·	33	-4	·	·
CN(C(=O)c1ccc(NC(=O)Cc2ccc(NC(=O)C3CCN(C(=O)C4CCC4)CC3)cc2)cc1)C1CCCC1	·	3	3	·	5	3	·	·
COc1cccc(CNc2nc3cc(-c4ccc(C(=O)N5CCN(C)CC5)cc4)sc3c(=O)n2C)c1	·	8	-6	·	-27	14	·	·
COc1ccc(/C=C2\CCc3ccccc3C2=O)cc1Cn1nc(C)cc1C	19	-1	-9	i	48	5	-4	5
O=C(Nc1cccc(S(=O)(=O)NC2=NCCCCC2)c1)c1cccnc1Cl	·	5	-1	i	-4	-26	-2	5
Cc1ccc(C)c(N2CCN(S(=O)(=O)c3c(C)noc3/C=C/N(C)C)CC2)c1	41	-12	-6	i	·	-7	-2	-5
CC(/C=N/n1c(-c2n[nH]c3c2CCC3)n[nH]c1=S)=C\c1ccco1	-8	2	-2	i	11	-32	51	24	eIF4H inh retest=1;PABP FP inh retest=16
O=C(CN1C(=O)c2cccc3cccc1c23)NC1CCCC1	·	2	6	i	0	-12	-2	-3
O=C(COC(=O)C1CC2CCCC(C1)C2=O)NNC(=O)c1ccc([N+](=O)[O-])cc1 (stereo not given)	-7	4	3	i	-7	-22	·	·
COc1ccccc1-n1cnnc1SC(C)C(=O)Nc1ccc(NC(C)=O)cc1 (stereo not given)	-4	1	3	i	2	·	1	5
O=S(=O)(c1ccc(NC(=S)NCc2ccncc2)cc1)N1CCCCC1	21	-1	-7	i	8	·	3	2
COCC(=O)n1cc(C(=O)OC)c2ccccc21	11	5	0	i	·	-19	-6	-7
N#CCCN1CCCc2cc(N=Nc3ccc(C(F)(F)F)cc3)ccc21	68	32*	-12*	i	-41	-11	-10	0
CCCn1c(SCC(=O)N2CCc3ccccc32)n[nH]c1=O	6	0	1	·	-14	6	·	·
O=C(Nc1nccs1)c1ccc[nH]c1=O	-12	1	-3	i	-108	-26	-6	1
Cc1ccccc1S(=O)(=O)N1[C@@H](c2ccc(F)cc2)C(C(=O)O)=CC[C@H]1c1ccc(Cl)cc1	13	-5	2	·	-37	17	·	·
C=CCN(C(=O)CCS(=O)(=O)c1cccc2nsnc12)c1ccccc1	-7	-2	-2	i	7	-13	-4	12
Cc1ccc(SCC(=O)NN=C2CCN(C)CC2)cc1	1	2	3	i	7	·	0	22
COc1cc2[nH]c(=S)n(C3CCCC3)c(=O)c2cc1OC	-11	1	-4	i	-34	3	-5	-2
NC(=O)C1CCCN(C(=O)CCCNC(=O)c2ccc(Cl)cc2)C1 (stereo not given)	-9	3	4	i	-9	-17	-1	-2
CCCC(=O)NCn1nnc(-c2ccc(Cl)cc2)n1	·	5	0	i	10	·	3	18
CC[C@@]1(C(=O)OC)N[C@H](CN(C)S(=O)(=O)c2ccccc2)[C@@H]2C(=O)N(Cc3ccccc3)C(=O)[C@@H]21	·	-4	1	·	?	-1	·	·
